Screening data: PubChem BioAssay, National Center for Advancing Translational Sciences (NCATS)
Sfp PPTase inh: blocks B. subtilis Sfp PPTase activity | Q9F4F7 | Biochemical Sfp PPTase activity, qHTS | Potency, µM, without a hit: max response, negative = inhibition, hits mostly inhibitors | 310,000 compounds, 3.5% hits | AID 1490; active = well fitted inhibition curve with a large enough effect; inconclusive = small, poorly fitted or top-dose-only effect, or another doubt; inactive = no such curve, though single readings can be large or run the other way;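 also: the enzyme is Sfp with the accession as filed and its product quenches rhodamine fluorescence; potency is read from the fitted curve at half-maximal effect; 0% = enzyme reaction without inhibitor and -100% = no enzyme wells; top concentration of the series not given in the record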
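Fluorescence-quenching assay: 15 nM Sfp-PPTase preincubated 15 min at room temperature with compound, then 5 uM rhodamine-CoA and 12.5 uM BHQ-2-labelled YbbR peptide added. Fluorescence (ex 525/em 598 nm) read at start and after 30 min; difference gives rate.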
gsp antag: antagonizes gsp, the McCune-Albright syndrome mutation. gsp-mutant cells, cAMP HTRF, 30 min; control for the full effect not named in the record. Potency, µM (top dose mostly 76.9 µM), for the others: at the top dose activity change, negative = inhibition, hits mostly inhibitors. 340,000 compounds, 0.4% hits. AID 624288; active = falling curve of any shape with a large fitted effect; inconclusive = falling curve, mostly with a smaller effect; inactive = flat or rising curve; cell line not stated here;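 also: intracellular cAMP measured with PDE inhibitor Ro 20-1724 present during compound exposure; potency is read from the fitted curve at half-maximal effect; % is scaled to controls: 0 for no effect and ±100 for the full control effect; nearly all actives have a fitted effect of over 65% in size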
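Measurement of cellular cAMP by homogeneous time-resolved fluorescence following a 30 min compound exposure at 37C. The PDE inhibitor […] was present throughout; the assay buffer was DPBS with 0.05% BSA and 0.005% Tween 20.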
Menin-MLL FL inh: menin-MLL binding inhibition, fluorescein peptide | Fluorescence polarization, fluorescein-MLL peptide displacement from menin | FP activity change, % at 61.4 µM | 290,000 tested, under 10 active | AID 1766; inconclusive = falling polarisation curve, or a change in total fluorescence; inactive = total fluorescence flat and polarisation flat or rising; no compound was filed as active; the % refers to the polarisation; negative = inhibition;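 also: % of control where 0% means no effect; inhibitors lower the polarisation; unlabelled MLL peptide was the positive control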
CtBP-E1A inh: blocks the CtBP interaction with E1A | AlphaScreen GST-E1A/His-CtBP binding, 1536-well; hits give low values; control for the full effect not named in the record | 340,000 compounds, 0.49% hits | activity change, % (no concentration beside the values); in the data active means activity change below about -65%; inconclusive means about -30% to -65%; inactive means above about -30%; also: % is scaled to controls: 0 for no effect and ±100 for the full control effect
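AlphaScreen with 125 nM GST-E1A and 125 nM His-CtBP (5X stocks) in Tris pH 8.0, 300 mM NaCl, BSA, Tween 20, TCEP. Compounds preincubated 2 h at 37 deg C, then glutathione donor/nickel acceptor beads added for 1 h at 37 deg C in dark.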
TRPV1 PAM: human TRPV1 potentiation. potentiation, % at 8.33 µM. TRPV1-expressing cells, Fluo-8 calcium influx, capsaicin EC20 potentiation; host cell line not named in the record; control for the full effect not named in the record. Q8NER1. 320,000 compounds, 0.02% hits. AID 540277; active means potentiation above 80%; inconclusive means 30% to 80%; inactive means below 30%; also: 0% is about no effect
Target sequence (Q8NER1 whole entry, looked up): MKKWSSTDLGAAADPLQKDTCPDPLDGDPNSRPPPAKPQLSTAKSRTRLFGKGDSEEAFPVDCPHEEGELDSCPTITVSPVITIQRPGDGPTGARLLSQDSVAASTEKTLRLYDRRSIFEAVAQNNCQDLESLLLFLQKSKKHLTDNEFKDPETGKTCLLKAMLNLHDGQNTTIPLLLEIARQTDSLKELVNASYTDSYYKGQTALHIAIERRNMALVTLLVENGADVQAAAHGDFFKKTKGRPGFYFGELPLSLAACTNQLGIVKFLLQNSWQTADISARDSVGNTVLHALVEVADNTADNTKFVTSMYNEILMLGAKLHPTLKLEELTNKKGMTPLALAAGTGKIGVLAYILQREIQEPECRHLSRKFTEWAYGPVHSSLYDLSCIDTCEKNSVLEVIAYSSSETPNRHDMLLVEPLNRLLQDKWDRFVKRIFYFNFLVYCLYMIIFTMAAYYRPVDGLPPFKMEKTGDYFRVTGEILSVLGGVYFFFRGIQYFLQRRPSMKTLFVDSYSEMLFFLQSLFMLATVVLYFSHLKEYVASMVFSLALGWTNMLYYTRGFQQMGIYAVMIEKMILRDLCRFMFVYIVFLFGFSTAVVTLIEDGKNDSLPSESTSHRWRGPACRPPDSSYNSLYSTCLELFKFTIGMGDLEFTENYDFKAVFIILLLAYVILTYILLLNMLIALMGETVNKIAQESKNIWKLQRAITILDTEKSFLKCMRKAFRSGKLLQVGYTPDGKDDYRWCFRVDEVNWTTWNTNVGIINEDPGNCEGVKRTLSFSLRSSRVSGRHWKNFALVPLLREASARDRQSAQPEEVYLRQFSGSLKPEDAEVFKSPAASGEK
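Fluo-8 calcium influx in TRPV1-expressing cells, kinetic read (ex 480/em 520 nm). Compound added and read 3 min for agonist activity, followed by capsaicin at EC20 final and 2 min further read for enhancement.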
ClpP mod: qHTS Assay for Activators of ClpP | purified B. subtilis ClpP, FRET peptide cleavage, 20 min | Potency, µM (titrated, usually from 57.5 µM), inactives show at the top dose activity change, negative = active | 340,000 compounds, 1.9% hits | AID 651965, 2013; active = well fitted falling curve with a large enough effect; inconclusive = small, poorly fitted or top-dose-only effect; inactive = no such curve, though single readings can be large or run the other way; also: potency is read from the fitted curve at half-maximal effect; the source files actives as falling curves though it sought activators and does not explain the sign; nearly all actives have a fitted effect of over 65% in size; many hits overshoot -100%
Target sequence (P80244 whole entry, looked up): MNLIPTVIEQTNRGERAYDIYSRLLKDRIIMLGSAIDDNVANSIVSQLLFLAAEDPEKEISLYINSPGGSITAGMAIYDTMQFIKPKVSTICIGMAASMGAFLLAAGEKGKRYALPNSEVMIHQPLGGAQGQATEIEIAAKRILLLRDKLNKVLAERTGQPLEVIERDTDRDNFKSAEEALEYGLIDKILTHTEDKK
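Buffer: 100 mM Tris/HCl pH8, 100 mM KCl, 0.05% low protease BSA, 2.5% glycerol, 0.01% Tween-20. ClpP 10 microg/mL final; 20 min RT; delta FRET normalized to ADEP and DMSO controls.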
gsp ag: activates gsp, the McCune-Albright syndrome mutation. gsp mutant cells, cAMP HTRF, 30 min; control for the full effect not named in the record. Potency, µM (series often up to 76.9 µM), without a hit: at the top dose activation (cAMP increase), usual class: activators. 340,000 compounds, 0.13% hits; active = well fitted activation curve with a large enough effect; inconclusive = small, poorly fitted or top-dose-only effect, or another doubt; inactive = no such curve, though single readings can be large or run the other way; cell line not stated here;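 also: phosphodiesterase inhibitor Ro 20-1724 added with compounds to block cAMP breakdown; potency is read from the fitted curve at half-maximal effect; nearly all actives have a fitted effect of over 60% in size; about a fifth of the inactives were tested at one dose only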
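Cells stably selected in G418 were plated at 2000/well, grown 16-24 hr, then given compounds in DMSO with the PDE inhibitor […] (300 uM solution added) for 30 min at 37C; cAMP was read by HTRF.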
* marks the source's active call; other numbers are inactive results; ? = inconclusive; . = no result given; & = joins results of further samples; [ ] = dose if it differs, or a comment.

nr	Molecule	Sfp PPTase inh	gsp antag	Menin-MLL FL inh	CtBP-E1A inh	TRPV1 PAM	ClpP mod	gsp ag
1	CCOC(=O)c1cc(CC)sc1/N=C/C1=C(O)CCCC1=O	-4%	-23%	5.4	10	-5	2.7%	-36%[inhibitor]
2	O=C(c1cccc(C(F)(F)F)c1)C1CCCN(C(=O)CCCN2CCCC2=O)C1 (configuration not stated)	20%	5%	2.8	.	6	0.2%	-77%[inhibitor]
3	CCOc1ccc(N(CC(=O)NCCSCc2ccc(Cl)cc2)S(C)(=O)=O)cc1	-6%	-10%	-0.1	.	9	2.0%	-6%
4	CC1C(=O)N(Cc2cn(CC3CCCCC3)nn2)CCS(=O)(=O)N1Cc1ccc(-c2ccc(F)nc2)cc1 (configuration not stated)	.	.	.	-6	.	0.1%	?
5	FC(F)C(F)(F)C1=CC(c2cccs2)=NCCN1	25%	8%	0.5	-2	-25	0.1%	-40%[inhibitor]
6	CC(=O)N1CCc2cc(S(=O)(=O)NC(C(=O)NC3CCCc4ccccc43)C(C)C)ccc21 (configuration not stated)	4%	4%	0.9	0	-1	1.1%	-38%[inhibitor]
7	Cc1cccc(C)c1OCCNC(=O)CCC(=O)c1ccccc1	0%	27%	-0.1	3	-27	0.8%	7%[15.4 µM]
8	CCOC(=O)C1=CN(Cc2ccco2)S(=O)(=O)N(C)C1c1cccc(OC)c1 (configuration not stated)	.	4%	.	-5	.	-1.9%	.
9	O=C1CCC(=O)N1c1ccc(CSc2nc3ccccc3[nH]2)cc1	-12%	-5%	-3.3	1	-7	-0.9%	-20%
10	COc1cc(/C=C2/SC(=O)N(CC(=O)N3CCCC3)C2=O)ccc1Oc1ccc([N+](=O)[O-])cn1	7%	7%	0.2	5	-8	-3.0%	16%[15.4 µM]

nr	Molecule	Sfp PPTase inh	gsp antag	Menin-MLL FL inh	CtBP-E1A inh	TRPV1 PAM	ClpP mod	gsp ag
11	Cc1ccc(S(=O)(=O)N2CCCCC2)cc1C(=O)N(C)CC(=O)Nc1cccc(F)c1	.	2%	.	7	-14	1.0%	-3%
12	Cc1cnc(NC(=O)CSc2nc3ccccc3s2)s1	-19%	-9%	3.6	-1	-12	-0.1%	1%
13	CCN(CC)CCCNC(=O)C1CCC(CNS(=O)(=O)c2ccc(Cl)cc2)CC1 (configuration not stated)	11%	7%	4.9	8	17	0.2%	20%
14	CN(C)CCCNC(=O)c1ccc(CN(c2ccccc2)S(C)(=O)=O)cc1	9%	4%	-0.3	-1	-9	-1.3%	4%
15	COc1cccc(NC(=O)CN(C)C(=O)c2ccccc2CCc2ccccc2)c1	5%	?	.	14	-6	-0.3%	-1%
16	CN(C)CCOc1nc(-c2ccccc2)nc2c1oc1ccccc12	-22%	10%	3.3	-27	5	-1.3%	1%
17	COc1ccc(N2CCN(C(=O)C3CCCN3S(=O)(=O)c3cccc4nsnc34)CC2)cc1 (configuration not stated)	15%	-7%	.	.	-4	-0.3%	7%
18	CCOc1ccc(C(CC(=O)O)n2cnnn2)cc1 (configuration not stated)	-10%	10%	-1.3	6	-22	.	17%[15.4 µM]
19	Cc1cc(C)cc(NC(=O)c2nccnc2C(=O)O)c1	?	9%	-1.8	3	6	0.7%	0%
20	Cc1cc2oc(=O)cc(C)c2c(=O)o1	-1%	-12%	0.6	-1	-2	-11%	-1%

nr	Molecule	Sfp PPTase inh	gsp antag	Menin-MLL FL inh	CtBP-E1A inh	TRPV1 PAM	ClpP mod	gsp ag
21	O=C(COC(=O)CNC(=O)c1ccc(Cl)c([N+](=O)[O-])c1)NC(=O)c1ccccc1	2%	-19%	.	5	1	-0.2%	15%
22	CC(=O)N1N=C(c2ccncc2)OC12CCCCC2	19%	4%	-0.1	6	5	?	?
23	O=C(Nc1ccc(NC(=O)c2ccc(Cl)c(S(=O)(=O)N3CCOCC3)c2)cc1)c1ccccc1	0%	-5%	3.1	7	9	-24%	?
24	Cc1cc(C)n2nc(C(F)(F)F)c(-c3ccccc3)c2n1	19%	?	2.4	24	-2	.	4%
25	CCOc1ccccc1-c1nnc(SCC(=O)NC2CC3CCC2C3)n1CC (configuration not stated)	10%	-8%	0.9	3	3	3.2%	2%
26	O=C(CCC(=O)c1ccc(Oc2ccccc2)cc1)Nc1cccc(Cl)c1Cl	14%	-5%	0.2	6	2	.	-1%
27	COc1ccc(/C=C/C(=O)NC2CCN(Cc3ccccc3)CC2)cc1OC	17%	1%	-0.8	-1	-6	.	-12%
28	O=C(Oc1ccc[nH]c1=O)c1ccc(F)cc1	.	.	.	4	.	-0.4%	?
29	O=C(CNC(=O)c1ccccc1F)NCCOc1ccccc1Cl	1%	3%	3.6	-1	-21	-0.2%	-84%[inhibitor]
30	CCOC(=O)c1c(N)sc(C(O)(C(F)(F)F)C(F)(F)F)c1-c1ccc(OC)cc1OC	-5%	3%	3.6	10	9	0.2%	22%

nr	Molecule	Sfp PPTase inh	gsp antag	Menin-MLL FL inh	CtBP-E1A inh	TRPV1 PAM	ClpP mod	gsp ag
31	CCN(CC)S(=O)(=O)c1ccc(C(=O)NCc2n[nH]c(=S)n2Cc2ccccc2)cc1	-14%	-13%	0.1	11	3	0.5%	?
32	CCOc1ccc2nc(NC(=O)CSCC(=O)Nc3cc(C)on3)sc2c1	.	-5%	.	4	-4	0.4%	-30%
33	CSCC[C@H](NC(=O)[C@H]1N2C(=O)c3ccccc3C2SC1(C)C)C(=O)NCc1ccncc1 (some centres not stated)	-3%	13%	.	2	-6	-2.7%	28%
34	COc1cccc(C(=O)NCCS(=O)(=O)NCc2ccc(Cl)cc2)c1	.	-4%	.	-22	0	-2.9%	-2%
35	CCN(CC)S(=O)(=O)c1ccc(NC(=O)COC(=O)c2ccc(Br)o2)cc1	16%	-31%	-2.4	1	-5	-1.5%	1%
36	N#Cc1cc2c(nc1SC1CCCCC1O)CCCC2 (configuration not stated)	10%	1%	-6.3	2	8	-4.3%	13%
37	c1ccc(-c2nc3nc4ccccc4nc3n2Cc2ccco2)cc1	10µM*	7%	?	0	26	-24%	-19%
38	CCCN(C(=O)c1ccc(N2CCCC2=O)cc1)c1c(N)n(Cc2ccccc2)c(=O)[nH]c1=O	.	15%	.	14	-17	-6.0%	-29%
39	Cc1cc(SCNC(=O)c2ccccc2)nc(C(C)C)n1	?	.	-0.2	8	-1	.	-2%[15.4 µM]
40	O=[N+]([O-])c1ccc(N2CCN(S(=O)(=O)c3ccc4ccccc4c3)CC2)cc1NCC1CCCO1 (configuration not stated)	15%	-26%	6.2	-1	-9	.	18%

nr	Molecule	Sfp PPTase inh	gsp antag	Menin-MLL FL inh	CtBP-E1A inh	TRPV1 PAM	ClpP mod	gsp ag
41	CCOC(=O)C1=C(C)Nc2ccccc2N=C1NC(=O)c1ccc(Cl)c(S(=O)(=O)N2CCCC2)c1	7%	.	?	-16	0	.	-1%[15.4 µM]
42	CCOc1ccc(S(=O)(=O)N2CCCCC2)cc1NC(=O)c1ccccc1	.	2%	.	3	.	.	2%[15.4 µM]
43	O=C(N/N=C1\C2CN3CCN(C2)CC1(c1ccccc1)C3)c1ccc(F)cc1	9%	11%	7.1	6	-8	.	-3%[15.4 µM]
44	O=c1c2ccccc2nc(SCc2ccccc2)n1Cc1ccco1	-24%	-10%	7.4	9	7	-16%	-24%
45	CCOC(=O)c1cnn(-c2ccc(Cl)cc2)c1C1CCN(C(=O)OC(C)(C)C)CC1	-12%	-26%	2.5	-12	-19	-1.4%	-28%
46	Nc1c(-c2ccc(Cl)cc2)cnn1-c1cccc([N+](=O)[O-])c1	-3%	3%	-2.8	-9	.	-0.4%	18%
47	COc1cc(C(=S)N2CCOCC2)cc(OC)c1OC(=O)c1ccccc1[N+](=O)[O-]	8%	-12%	-2.8	0	0	.	-47%[inhibitor]
48	CC(=O)Nc1nc(C)c(Oc2ccc(C)cc2)c(=O)[nH]1	-1%	-14%	4.4	11	13	.	5%
49	COc1cc(C2C3=C(COC3=O)Oc3cc4c(cc32)OCO4)cc(OC)c1OC(C)=O (configuration not stated)	.	28%	.	8	.	1.1%	?
50	CC(C)[C@H](NC(=O)[C@@H]1CSCN1C(=O)OC(C)(C)C)C(=O)NCC1CCC(C(=O)O)CC1 (some centres not stated)	21%&8%	-10%	4.7&0.7	5	-13&3	-0.7%	23%

nr	Molecule	Sfp PPTase inh	gsp antag	Menin-MLL FL inh	CtBP-E1A inh	TRPV1 PAM	ClpP mod	gsp ag
51	CC1=C(C(=O)Nc2ccccc2C)C(c2ccc(C)o2)n2c(s/c(=C/c3ccccc3)c2=O)=N1 (configuration not stated)	-19%	0%	?	-1	-7	0.5%	28%
52	Cc1cccc(C)c1NC(=S)NC1CCCCC1	9%	14%	5.5	7	-8	-4.6%	-4%[15.4 µM]
53	Cn1c(C(=O)O)cnc1Sc1ncc(C(F)(F)F)cc1Cl	-7%	5%	1.4	2	-8	.	-12%
54	COC(=O)[C@H](CCSC)NC(=O)Nc1ccc(C)c(C)c1	-3%	14%	2.0	8	-10	-0.1%	?

One compound at a time, from the list above. Order of values: Sfp PPTase inh, gsp antag, Menin-MLL FL inh, CtBP-E1A inh, TRPV1 PAM, ClpP mod, gsp ag
`Nc1c(-c2ccc(Cl)cc2)cnn1-c1cccc([N+](=O)[O-])c1` in the list: -3%, 3%, -2.8, -9, ., -0.4%, 18%
`CCOc1ccc(N(CC(=O)NCCSCc2ccc(Cl)cc2)S(C)(=O)=O)cc1` in the list: -6%, -10%, -0.1, ., 9, 2.0%, -6%
`CC(C)[C@H](NC(=O)[C@@H]1CSCN1C(=O)OC(C)(C)C)C(=O)NCC1CCC(C(=O)O)CC1` (some centres not stated) in the list: 21%&8%, -10%, 4.7&0.7, 5, -13&3, -0.7%, 23%
`CCN(CC)S(=O)(=O)c1ccc(NC(=O)COC(=O)c2ccc(Br)o2)cc1` in the list: 16%, -31%, -2.4, 1, -5, -1.5%, 1%
